Source: PubChem
HPGD block = HPGD (human) dehydrogenase inhibition; purified HPGD, NADH fluorescence kinetic, PGE2 substrate; Potency, µM, for inactives: top-dose activity change, negative = inhibition, hits mostly inhibitors; 4.3% of 150,000 active; AID 894; active = well fitted inhibition curve with a large enough effect (not every such curve was filed as active); inconclusive = small, poorly fitted or top-dose-only effect, or another doubt; inactive = no such curve, though single readings can be large or run the other way;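 also: top concentration of the series not given in the record; plate controls included wells without enzyme; inactives centre near -10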
Target sequence (P15428 whole entry, looked up): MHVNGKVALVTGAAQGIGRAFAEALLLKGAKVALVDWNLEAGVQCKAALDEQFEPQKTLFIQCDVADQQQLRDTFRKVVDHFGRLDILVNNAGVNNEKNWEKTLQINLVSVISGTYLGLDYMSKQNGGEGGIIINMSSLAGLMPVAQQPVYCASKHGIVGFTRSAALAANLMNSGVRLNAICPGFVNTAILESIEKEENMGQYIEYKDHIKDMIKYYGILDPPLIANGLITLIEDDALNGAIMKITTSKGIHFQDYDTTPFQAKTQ
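NADH formation kinetics: reaction with 30 uM PGE2 and 1 mM NAD+ (final), 20 nM enzyme, Tris-HCl pH 8 with Tween 20, after 15 min compound preincubation at room temperature. Fluorescence change, last versus first of five reads.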
Starred values were filed as active, the others as inactive; ? = inconclusive; [ ] = dose if it differs, or a comment. % is scaled to controls: 0 for no effect and ±100 for the full control effect; potency is read from the fitted curve at half-maximal effect. Not all compounds are listed; count on the stated rates, not on these rows.

SMILES	HPGD block
COc1cc2oc(=O)cc(-c3ccc(-c4ccc(C)cc4)cc3)c2c(OC)c1OC	-16%
CCCN(CCC)C(=O)c1c(NC(=O)CC)sc2c1CCCCC2	-6%
COc1ccc(OC)c(N(CC(=O)N2CCC(C)CC2)S(=O)(=O)c2ccccc2)c1	1%
CC(=O)c1cccc(NC(=O)NCc2ccccn2)c1	-12%
CCOC(=O)/C=C1\SCC(=O)N1CC(=O)Nc1ccccc1OC(F)F	-4%
C(=N\Nc1ccc(-n2ccnc2)nn1)/c1ccccc1	-15%
Cc1ccc(-n2nc(-c3ccc(N)cc3)cc2N)cc1	-19%
CCCCNC(=O)CSc1nc2ccc(N3CCOCC3)cc2c(=O)n1CCc1ccccc1	?
COc1ccc(Sc2ccc(/C=C3\C(=O)NN(c4ccccc4)C3=O)o2)cc1	16µM*
Cc1ccc(C(=O)N/N=C/C2=Cc3ccccc3OC2C)cc1 (stereo not given)	?
Cn1c(C(=O)N2CCCC2)cc2c(=O)n(C)c3ccccc3c21	22µM*
O=C(NCCc1ccccc1)c1cccnc1N1CCCCCC1	-1%
Cc1ccc(Br)cc1S(=O)(=O)N1CCN(c2ccccc2)CC1	-26%
O=C1c2ccccc2C(=O)N1CSc1nnnn1-c1ccccc1	2%
Cn1cccc1Cc1nnc(SCC(=O)Nc2ccc3c(c2)OCCO3)n1CCc1ccccc1	-16%
CCOc1cc(CNCc2ccncc2)cc(Cl)c1OC	-7%
CC12CCCCC1c1ccccc1C(=NCC(=O)O)N2 (stereo not given)	-4%
Cc1[nH]c(=O)[nH]c(=O)c1NC(=O)c1sc2nc3c(C)cccc3cc2c1N	-14%
NC(=O)CCCCC(=O)OCCCc1cccs1	4%
N#CCSc1ncccc1-c1nc2ccccc2[nH]1	-22%
Cc1ccc2oc(=O)c3cnn(CC(=O)N(CCN(C)C)Cc4ccco4)c3c2c1	-7%
CC(=O)NCCn1c(SCc2ccccc2F)nc2ccccc2c1=O	-24%
COc1ccc(NC(=O)C2CCCN(S(=O)(=O)c3cccc4cccnc34)C2)cc1 (stereo not given)	-9%
Cc1ccc(-n2nnnc2-c2cnn(-c3ccc(F)cc3)c2C(F)(F)F)cc1	-17%

A draw from above in order of molecular weight, high to low:
SMILES	HPGD block
Cn1cccc1Cc1nnc(SCC(=O)Nc2ccc3c(c2)OCCO3)n1CCc1ccccc1	-16%
CCCCNC(=O)CSc1nc2ccc(N3CCOCC3)cc2c(=O)n1CCc1ccccc1	?
COc1ccc(NC(=O)C2CCCN(S(=O)(=O)c3cccc4cccnc34)C2)cc1 (stereo not given)	-9%
Cc1ccc2oc(=O)c3cnn(CC(=O)N(CCN(C)C)Cc4ccco4)c3c2c1	-7%
Cc1ccc(Br)cc1S(=O)(=O)N1CCN(c2ccccc2)CC1	-26%
COc1ccc(Sc2ccc(/C=C3\C(=O)NN(c4ccccc4)C3=O)o2)cc1	16µM*
Cc1ccc(-n2nnnc2-c2cnn(-c3ccc(F)cc3)c2C(F)(F)F)cc1	-17%
CCOC(=O)/C=C1\SCC(=O)N1CC(=O)Nc1ccccc1OC(F)F	-4%
CC(=O)NCCn1c(SCc2ccccc2F)nc2ccccc2c1=O	-24%
O=C(NCCc1ccccc1)c1cccnc1N1CCCCCC1	-1%
Cn1c(C(=O)N2CCCC2)cc2c(=O)n(C)c3ccccc3c21	22µM*
CCOc1cc(CNCc2ccncc2)cc(Cl)c1OC	-7%
Cc1ccc(C(=O)N/N=C/C2=Cc3ccccc3OC2C)cc1 (stereo not given)	?
CC12CCCCC1c1ccccc1C(=NCC(=O)O)N2 (stereo not given)	-4%
NC(=O)CCCCC(=O)OCCCc1cccs1	4%
N#CCSc1ncccc1-c1nc2ccccc2[nH]1	-22%
Cc1ccc(-n2nc(-c3ccc(N)cc3)cc2N)cc1	-19%

Later entries:
SMILES	HPGD block
Cc1ccc(OC(=S)Nc2ccc(O)cc2)cc1	-14%
COc1c(C(=O)NCCSC(C)(C)C)ccc2ccccc12	-21%
Cc1ccc(NC(=O)C2CCCN2C(=O)Oc2ccccc2)cc1C (stereo not given)	-5%
O=C(O)Cn1cc2c(n1)CCCC2	-7%
COC(=O)c1cn(NC(=O)/C=C/c2cc(OC)ccc2OC)c(=O)c2ccccc12	?
CCn1c(CNc2ccc(Cl)cc2)nnc1SCc1ccc(C)cc1	-19%
Fc1cccc(C2NN=C(c3ccccc3)S2)c1 (stereo not given)	-16%
CC(C)Sc1nc(N)nc(-c2cccs2)c1C#N	?
COC(=O)Cn1c(CN2CCC(Cc3ccccc3)CC2)nc2c1c(=O)n(C)c(=O)n2C	-11%
CCOC(=O)CSc1nnc(CNC(=O)c2cccs2)n1-c1cccc(C)c1	-4%
O=C(NCCNS(=O)(=O)c1ccc(Cl)cc1)c1cc(OCC(F)(F)F)ccc1OCC(F)(F)F	-5%
CC1(C)CC(CCNC(=O)c2ccc(-n3cnnn3)cc2)CC(C)(C)N1	-4%

Individual results from the entries so far:
Value of O=C(NCCNS(=O)(=O)c1ccc(Cl)cc1)c1cc(OCC(F)(F)F)ccc1OCC(F)(F)F under HPGD block: -5%
Value of COc1c(C(=O)NCCSC(C)(C)C)ccc2ccccc12 under HPGD block: -21%

Additional results:
SMILES	HPGD block
CC(=O)NS(=O)(=O)c1ccc(NS(=O)(=O)c2ccc(F)cc2)cc1	-8%
Cc1cc(C)c2c(N)c3cccc(C)c3nc2n1	?
Cc1nn(-c2ccccc2Cl)c(Cl)c1/C=N/Nc1cccc(C(=O)O)c1	13µM*
O=S(=O)(NCc1csc(-c2ccccc2)n1)c1ccc(Cl)s1	18µM*
N/C(=N/O)C(c1ccccc1)c1ccccc1	-9%
COc1ccc(NC(=O)C(c2ccc(OC)cc2)N(C)C(=O)CNC(C)=O)cc1 (stereo not given)	-8%
CCOC(=O)N1CCN(C(=O)CN(c2ccc(C)cc2)S(=O)(=O)c2c(C)noc2C)CC1	-6%
CC/C=C\C/C=C\C/C=C\C/C=C\C/C=C\C/C=C\CCC(=O)NC(C)C(=O)O (stereo not given)	-7%
O=C1CC(=O)N(c2ccccc2)N1c1ccccc1	-7%
O=C(c1c(F)c(F)c(F)c(F)c1F)N1CCN(c2cccc(C(F)(F)F)c2)CC1	-22%
CCOC(=O)C(=CNc1ncccc1C)C(=O)OCC	-17%
COc1ccc2[nH]c(C)c(CCNc3ccc(C(F)(F)F)cc3[N+](=O)[O-])c2c1	?
O=C(NCc1ccco1)C1CCC(N2C(=O)c3ccccc3C2=O)CC1 (stereo not given)	-20%
O=C(Nc1ccc(F)cc1)N1CCC(c2nc3c(nnn3Cc3cccc(Cl)c3)c(=O)[nH]2)CC1	8.9µM*
O=C(CSc1nnnn1-c1cccc(F)c1)Nc1nc2ccccc2s1	-17%
COc1ccc(N2CCN(c3oc(-c4ccccc4OC)nc3C#N)CC2)cc1	?
CCC(N=c1cc(-c2ccc(OC)cc2)oc2ccc(C)cc12)C(=O)O (stereo not given)	?
COc1cc(/C=C(\C#N)c2ccccn2)ccc1OCC(=O)Nc1c(Cl)cccc1Cl	-25%
COc1ccc(NC(=O)CCn2nnc(-c3ccc(C)cc3)n2)cc1OC	-6%
COc1ccc(NC(=O)CN2c3cccc4cccc(c34)S2(=O)=O)cc1	-28%
CCn1c(C)[n+](CC(O)COCC2CC=CCC2)c2ccccc21 (stereo not given)	-13%
COc1ccccc1C(=O)N(CN1CCCC1=O)c1cccc(Cl)c1	1%
CCn1c(C(=O)N2CCC(Cc3ccccc3)CC2)cc2sccc21	-16%
CC(C)(C)C(=O)N1CCN(c2ccc([N+](=O)[O-])c(-n3nc(-c4ccccc4)c4ccccc4c3=O)c2)CC1	-11%
O=Cc1ccc(Cl)cc1	-4%
S=c1[nH]nc(-c2cccnc2)n1-c1ccccc1	-27%
CCOC(=O)C1=C(C)NC2=C(C(=O)CC(C)(C)C2)C1c1ccsc1 (stereo not given)	-21%
CC1(C)OC2CC3C4CCC5=CC(=O)C=C[C@@]5(C)[C@]4(F)C(O)C[C@@]3(C)[C@]2(C(=O)CO)O1 (stereo not given in full)	-7%
COc1cc(C(=O)N/N=C2\CCS(=O)(=O)c3ccc(F)cc32)cc(OC)c1OC	-10%
COc1cccc(-c2cc(C(F)(F)F)n3ncc(S(=O)(=O)c4ccccc4)c3n2)c1	?
Cc1ccc(-c2cc(C(=O)N/N=C/c3ccco3)n[nH]2)s1	-6%
COc1ccc(CN2CCN(C(=O)c3cc(OC)c(OC)c(OC)c3)CC2)cc1OC	-3%
Cc1ccccc1NC(=S)NNC(=O)c1cccnc1	-27%
O=c1[nH][nH]c(-c2ccccc2)c1C=Nc1ccccc1	-25%
CCOC(=O)C1=C(C)N(C)C(=O)NC1c1ccc(C)s1 (stereo not given)	-4%
O=c1cc(CSc2nnc(COc3ccccc3Cl)o2)nc2sccn12	18µM*
CCOP(=O)(c1ccccc1)C(O)c1ccccc1 (stereo not given)	-1%
CCc1ccc(N2C(=O)c3ccc4c5c(ccc(c35)C2=O)CC4)cc1	?
O=C(Nc1c2c(nc3ccccc13)CCCC2)c1cccc([N+](=O)[O-])c1	-4%
CCC(CC)C(=O)Nc1cc(C(=O)OC)cc(C(=O)OC)c1	-28%
N#CCSc1ncnc2c1cnn2CCO	-9%
O=C(CSc1n[nH]c(-c2cc(Cl)ccc2Cl)n1)NCCN1C(=O)CSC1=O	16µM*
COc1ccc(CCNC(=O)CC2Nc3ccccc3NC2=O)cc1 (stereo not given)	?
CCC1(C)Cc2c(sc3c2c(=O)n(C)c2nnc(SCCc4ccccc4)n32)CO1 (stereo not given)	-6%
Cc1noc(/C=C/c2ccco2)c1S(=O)(=O)N1CCC(C(=O)NCc2ccco2)CC1	30%[activator]
NNC(=O)Cn1c(SCc2ccccc2)nc2ccccc21	1%
CCOC(=O)Cn1c(=O)c2c(nc3n2CCCCN3c2ccc(C)cc2)n(C)c1=O	2%
S=C(NC1CCCCC1)N1CCN(C/C=C/c2ccccc2)CC1	-8%
COC(=O)CCc1c(C)c(C#N)c2nc3ccccc3n2c1N1CCCC1	?
CCCCn1c(CCNC(=O)CC)nc2ccccc21	-6%
CC(=O)Nc1ccc([C@H]2[C@H](C)CC[C@H]3C(=O)N4[C@@H](CC[C@@H](C)[C@@H]4c4ccc(NC(C)=O)cc4)C(=O)N32)cc1	-11%
NS(=O)(=O)c1ccc(CCNc2ncnc3c2c(-c2ccccc2)cn3-c2ccc(F)cc2)cc1	?
COc1ccc(N2CCN(C(=O)CCNS(=O)(=O)c3cccs3)CC2)cc1	0%
OCCCCNc1cccc2ccccc12	?
Cc1cccc(-c2cc(C(=O)NCCCn3ccnc3)c3ccccc3n2)c1	-16%
Cc1cc2c(C)nc(-c3ccccc3)nc2o1	-5%
O=C(O)C1CCCCC1C(=O)Nc1ccc2c(c1)OCCO2 (stereo not given)	-10%
CCOC(=O)C1=C(CN2CCN(c3ccc(F)cc3)CC2)NC(=O)NC1c1cccs1 (stereo not given)	3%
CCCN1C(=O)/C(=C/c2ccc(C)o2)SC1=Nc1ccc(OC)cc1	25µM*
COc1ccc(C(=S)Nc2ccc(N(C)C)cc2)cc1	-11%

(continued)
SMILES	HPGD block
CCOC(=O)C1=C(N)N2C(=O)C(C)SC2=C(C(=O)OC)C1c1ccccc1OC (stereo not given)	-17%
Cc1c(C(=O)C(=O)N2CCCc3ccccc32)c2ccccc2n1C	-14%
COc1ccccc1-c1cc(C(=O)NCCc2ccccc2)no1	?
COc1ccc2oc(C)c(C(N)=O)c2c1	-2%
CCC(=O)NC(c1ccccc1)c1nc2ccccc2[nH]1 (stereo not given)	-12%
Cc1ccc(NC(=O)c2ccc(C#CC3(O)CCCCC3)cc2)cc1C	-15%
COc1cc(C(=O)O)nc2ccccc12	-7%
CCS(=O)(=O)N1CCCC(C(=O)NCc2ccc3c(c2)OCO3)C1 (stereo not given)	-5%
Cn1c(=O)oc2cc(S(=O)(=O)NCCC(=O)N3CC=C(c4ccccc4)CC3)ccc21	-2%
COc1cccc(-c2nccc(NCc3cccc(C)c3)n2)c1	-11%
Cc1ccc(CCc2nnc(SCC(=O)Nc3cc(Cl)ccc3Cl)n2-c2ccccc2)o1	-4%
Cc1ccc(OCC(=O)Nc2ccc(-c3nc4ncccc4o3)cc2)cc1	?
CCCCC1=CC2=C(c3ccco3)C(=O)C(C)(OC(=O)c3ccc(OC)cc3)C(=O)C2=CN1C1CCCC1 (stereo not given)	1%
Cc1oc(-c2ccc(Cl)cc2)nc1CSCC(=O)NCCCN1CCOCC1	-18%
Cc1[nH]c2c(C)cccc2c1CCNS(=O)(=O)c1cccc([N+](=O)[O-])c1	-7%
CCOC(=O)c1cnc(SCC(C)C)nc1N	-16%
COc1ccccc1OCCc1nnc(N)s1	-3%
OCCN(Cc1ccccc1)Cc1cccc(Cl)c1Cl	-21%
CCOC(=O)c1sc(NC(=O)c2ccc(CC)s2)nc1C	15%
O=C(Cn1cc2c(n1)CCCCC2)NCc1ccccc1	-9%
CNC(=O)c1[nH]cnc1C(=O)Nc1ccccc1OC	-17%
CCN(CC)CCn1c(-c2ccccc2)nc2c(NCc3ccccc3)nc(C)nc21	?
O=C(O)CC(c1ccccc1)c1ccccc1	-6%
CCC(=O)Nc1ccc(S(=O)(=O)N2CCCCC2)cc1OC	0%
COc1ccc(-c2c3c(=O)n(C)c(=O)n(C)c3cn2Cc2cccnc2)cc1	-5%
Cc1ccc(N2C(N)=C(C#N)C3(C(=O)N(C)c4ccccc43)C3=C2CC(C)(C)CC3=O)cc1Cl (stereo not given)	-15%
CCNc1nc(Oc2ccc(=O)[nH]n2)nc(N2CCOCC2)n1	2%
Nc1nc(SCC(=O)NC2CCCC2)[nH]c(=O)c1-c1ccccc1	-1%
Cc1ccc(OCC(=O)NCc2cccs2)cc1	22µM*
COc1cc(C)c(S(=O)(=O)Nc2ccc(CC(=O)O)cc2)cc1C	2%
